Sfp inh – Sfp phosphopantetheinyl transferase inhibition; Q9F4F7; Biochemical Sfp PPTase activity, qHTS; Potency, µM, for inactives: max response, negative = inhibition, usual class: inhibitors; 310,000 tested, 3.5% active; AID 1490; active = well fitted inhibition curve with a large enough effect; inconclusive = small, poorly fitted or top-dose-only effect, or another doubt; inactive = no such curve, though single readings can be large or run the other way;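 note: the enzyme is Sfp with the accession as filed and its product quenches rhodamine fluorescence; potency is the fitted concentration of half-maximal effect; 0% = enzyme reaction without inhibitor and -100% = no enzyme wells; top concentration of the series not given in the record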
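With Hepes-Na pH 7.6 buffer containing 10 mM MgCl2, Sfp (15 nM) modified BHQ-2-YbbR (12.5 uM) using rhodamine-CoA (5 uM). Two reads 30 minutes apart at 525/598 nm yielded each well's rate.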
gsp antag – antagonizes gsp, the McCune-Albright syndrome mutation. 340,000 tested, 0.4% active. Potency, µM (highest dose often 76.9 µM), for inactives: at the top dose activity change, negative = inhibition, most hits filed as inhibitors. gsp-mutant cells, cAMP HTRF, 30 min; control for the full effect not named in the record; active = falling curve of any shape with a large fitted effect; inconclusive = falling curve, mostly with a smaller effect; inactive = flat or rising curve; cell line not stated here;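 note: intracellular cAMP measured with PDE inhibitor Ro 20-1724 present during compound exposure; potency is the fitted concentration of half-maximal effect; % is set by controls: 0 for no effect and ±100 for the full control effect; nearly all actives have a fitted effect of over 65% in size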
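G418-selected cells were plated in DMEM/10% FBS for 16-24 h at 37C, then treated with compounds plus the PDE inhibitor […] (300 uM solution added) for 30 min at 37C. Intracellular cAMP was measured by HTRF after 30 min lysis at room temperature.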
Menin-MLL FL inh – menin-MLL binding inhibition, fluorescein peptide | FP activity change, % at 61.4 µM | 290,000 tested, under 10 active | Fluorescence polarization, fluorescein-MLL peptide displacement from menin; inconclusive = falling polarisation curve, or a change in total fluorescence; inactive = total fluorescence flat and polarisation flat or rising; no compound was filed as active; the % refers to the polarisation; negative = inhibition;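 note: % of control where 0% means no effect; inhibitors lower the polarisation; unlabelled MLL peptide was the positive control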
gsp agonist – agonists of gsp mutant (McCune-Albright syndrome); Potency, µM (titrated, usually from 76.9 µM), inactives show at the highest dose activation (cAMP increase), usual class: activators; 340,000 tested, 0.13% active; gsp mutant cells, cAMP HTRF, 30 min; control for the full effect not named in the record; active = well fitted activation curve with a large enough effect; inconclusive = small, poorly fitted or top-dose-only effect, or another doubt; inactive = no such curve, though single readings can be large or run the other way; cell line not stated here;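 note: phosphodiesterase inhibitor Ro 20-1724 added with compounds to block cAMP breakdown; potency is the fitted concentration of half-maximal effect; nearly all actives have a fitted effect of over 60% in size; about a fifth of the inactives were tested at one dose only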
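Cells in DMEM/10% FBS with G418 were pretreated with compounds in DMSO plus […] (300 uM stock) for 30 min at 37C. cAMP was measured by HTRF (cAMP-d2 plus anti-cAMP antibody-K) after 30 min at room temperature.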
PINK1 modulator – modulators of PINK1 expression | PINK1 immunofluorescence, high-content cytometry, 24 h | Potency, µM (doses to about 76.6 µM), for inactives: at the top dose activation (PINK1 increase), actives largely listed as activators | 410,000 tested, 0.2% active; active = well fitted activation curve with a large enough effect; inconclusive = small, poorly fitted or top-dose-only effect; inactive = flat fitted curve, though single readings scatter; cell line not stated here;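 note: potency is the fitted concentration of half-maximal effect; % of control where 0% means no effect; nearly all actives have a fitted effect of over 65% in size; a mitochondrial uncoupler was the plate control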
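Compound titrations (5 concentrations, 24 h) on a stable cell line; DMSO and CCCP controls. Endpoint: fixed-cell PINK1 immunofluorescence with mitochondrial, cell and nuclear markers, scanned by microplate cytometer.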
ClpP mod – qHTS Assay for Activators of ClpP; purified B. subtilis ClpP, FRET peptide cleavage, 20 min; 340,000 tested, 1.9% active; ATP-dependent Clp protease proteolytic subunit (Bacillus subtilis (strain 168)), P80244; AID 651965, 2013; Potency, µM (series often up to 57.5 µM), for the others: at the top dose activity change, negative = active; active = well fitted falling curve with a large enough effect; inconclusive = small, poorly fitted or top-dose-only effect; inactive = no such curve, though single readings can be large or run the other way; note: potency is the fitted concentration of half-maximal effect; the source files actives as falling curves though it sought activators and does not explain the sign; nearly all actives have a fitted effect of over 65% in size; many hits overshoot -100%
Target sequence (P80244 whole entry, looked up): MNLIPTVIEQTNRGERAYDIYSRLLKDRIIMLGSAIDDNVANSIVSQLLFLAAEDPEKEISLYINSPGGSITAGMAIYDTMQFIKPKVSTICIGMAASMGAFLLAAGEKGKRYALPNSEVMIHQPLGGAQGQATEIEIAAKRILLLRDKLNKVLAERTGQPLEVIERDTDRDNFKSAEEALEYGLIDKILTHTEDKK
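FRET quenching reversal measured ClpP activation: 10 microg/mL B. subtilis ClpP at pH 8 with the FRET-FV decapeptide, read at 430 nm after 320 nm excitation. The 20-min minus 0-min signal was scaled between DMSO/no-enzyme wells and ADEP (5.8 microM final).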
D2 ag – agonists of human D2 dopamine receptor (beta-arrestin); P14416; DiscoveRx PathHunter D2 beta-arrestin, luminescence, 90 min; 100% = 57 uM dopamine signal; activation, % (test concentration not listed); 360,000 tested, 0.084% active; AID 624465; in the data active = activation above about 40%; inconclusive = about 15% to 40%; inactive = below about 15%; note: compound concentration not given in the record; the text of the record calls up to 30% inactive
Target sequence (P14416 whole entry, looked up): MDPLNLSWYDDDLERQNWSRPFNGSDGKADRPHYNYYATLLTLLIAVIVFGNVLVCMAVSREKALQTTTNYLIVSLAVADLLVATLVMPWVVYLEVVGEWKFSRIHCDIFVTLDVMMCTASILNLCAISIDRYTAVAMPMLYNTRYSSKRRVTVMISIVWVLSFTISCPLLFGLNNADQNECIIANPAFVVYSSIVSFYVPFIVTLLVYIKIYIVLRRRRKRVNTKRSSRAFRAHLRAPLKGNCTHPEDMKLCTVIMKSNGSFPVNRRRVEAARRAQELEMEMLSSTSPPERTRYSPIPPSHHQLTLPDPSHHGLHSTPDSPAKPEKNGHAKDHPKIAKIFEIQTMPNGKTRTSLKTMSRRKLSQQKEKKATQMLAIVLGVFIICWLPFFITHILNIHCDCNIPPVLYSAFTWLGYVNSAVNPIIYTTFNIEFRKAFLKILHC
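Agonist mode: compounds alone added to overnight-plated D2 PathHunter cells for 90 min at 37 C, with 57 uM final dopamine (EC100) defining full response. Beta-arrestin recruitment detected by chemiluminescent reagent, read after 1 h at ambient temperature.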
Starred values were filed as active, the others as inactive; u = inconclusive; x = not tested or not shown; [ ] = dose if it differs, or a comment.

Molecule	Sfp inh	gsp antag	Menin-MLL FL inh	gsp agonist	PINK1 modulator	ClpP mod	D2 ag
CC(=O)Nc1ccccc1-c1nc2ccccc2nc1OCC(=O)c1ccc2ccccc2c1	-16%	-1%	0.2	-16%	7.6%[38.3 µM]	-5.5%	-3.7
Cc1ccc(NS(=O)(=O)c2ccc(Br)s2)nc1	u	-8%	-7.5	3%	-1.7%	x	5.8
COc1cccc(NC(=O)C(c2ccccc2)N2CCCCC2)c1 (stereo unspecified)	9%	x	0.7	18%[15.4 µM]	-0.6%	x	-1.1
Cc1ccccc1C(C)NS(=O)(=O)c1ccc2c(c1)OCCO2 (stereo unspecified)	x	3%	x	29%	0.2%	0.6%	-0.9
COCc1nc2oc3ccc(C)cc3c(=O)c2cc1C(=O)OC	18%	-1%	-9.3	29%[15.4 µM]	7.5%	x	-2.2
O=C(Nc1cccc(Cl)c1)c1cccc(Oc2ccc([N+](=O)[O-])cc2Cl)c1	18%	-23%	-0.7	-2%	u	-2.0%	1.7
O=C(O)CC(NC(=O)COc1ccc(Cl)cc1Cl)C(=O)O (stereo unspecified)	0%	6%	-1.3	7%	-1.5%	-0.8%	1.9
Nc1nnc(CSCc2ccccc2Cl)s1	10%	1%	9.2	15%	-0.3%	x	1.4
CCn1cnc2c1c(=O)n(Cc1nnc3n1-c1ccccc1SC3)c(=O)n2Cc1ccccc1	-8%	7%	4.1	-18%	1.4%	-3.5%	-4.4
O=C(CSc1ccc(-c2ccncc2)nn1)c1ccc(Cl)cc1	11%	-26%	-1.4	-33%[15.4 µM]	4.9%	x	-0.9
CCOc1ccc(S(=O)(=O)NCCC(=O)NCC2(N3CCCCC3)CCCCC2)cc1	11%	-4%	3.8	-11%	-0.2%	-13%	-3.1
COC(=O)c1ccc(C)c(NS(=O)(=O)c2ccc(OC)c(OC)c2)c1	6%	5%	0.3	-14%	4.2%	-2.6%	-1.0
Nc1ccc(C(=O)c2cccs2)cc1[N+](=O)[O-]	4%	-2%	-0.9	16%	0.4%	-0.6%	-1.6
COc1cc(/C=C(\C#N)c2nc3ccccc3[nH]2)ccc1OC(=O)c1ccco1	13%	4%	u	0%	1.6%	u	-1.9
CN1CCc2c(sc3nc(SCC(=O)N4CCCCC4)n(-c4ccccc4)c(=O)c23)C1	-8%	-21%	x	27%	3.9%	3.7%	3.0
O=C(NCc1cccs1)C(=O)c1cn(CC(=O)N2CCCC2)c2ccccc12	7%	-2%	-4.8	-21%[15.4 µM]	2.1%	-12%	-5.5
O=C(Nc1cc(Cl)ccc1N1CCOCC1)c1ccc(N2CCCC2=O)cc1	x	-2%	x	-1%[15.4 µM]	-0.1%	x	-2.9
COc1cc(OC)c(NC(=O)CNC(=O)Cn2ccc3ccccc3c2=O)cc1Cl	11%	14%	6.9	-9%[15.4 µM]	18%	-5.3%	-5.9
COc1ccc(C(=O)Oc2cccc(Nc3ncnc4ccccc34)c2)cc1OC	-2%	6%	x	-27%	20%	-8.8%	-2.3
COc1ccc2nc(C)c(C(=O)NN)cc2c1	3%	10%	1.7	-37%[inhibitor]	2.4%	u	3.9
CN1C(=O)NC(c2ccccc2)C2=C1CN(CCc1ccccc1)C2=O (stereo unspecified)	8%	-9%	-4.1	6%	21%[38.3 µM]	-1.6%	-5.3
NC(=S)NN=C(c1ccccc1)c1ccccc1	12%	6%	1.1	21%	2.8%	-1.6%	-5.7
CCOC(=O)N1CCN(S(=O)(=O)c2ccc(C)c(C)c2C)CC1	7%	-7%	0.7	-20%	0.7%	0.3%	-4.3
CCOC(=O)C1CCCN(C(=O)c2cccc(NC(=O)C(CC)CC)c2)C1 (stereo unspecified)	15%	1%	1.1	5%[15.4 µM]	0.3%	x	-2.0
CCN(CC)C(=O)Cn1cc(C(=O)C(=O)NCC2COc3ccccc3O2)c2ccccc21 (stereo unspecified)	10%	-28%	-20	4%[15.4 µM]	1.9%	20µM*	-4.2
COc1cccc(Nc2nc(-c3cccc(N4C(=O)c5ccccc5C4=O)c3)cs2)c1	15%	-5%	1.6	u	-1.3%	-3.9%	-1.8
CCN(C(C)=O)c1ccc(Oc2nc(OC)cc(OC)n2)cc1	-34%	-2%	4.2	5%[15.4 µM]	2.3%	x	-3.8
CCC1(C)Cc2nc3[nH]c(=S)n(-c4ccccc4C)c(=O)c3cc2CO1 (stereo unspecified)	20%	-15%	-1.1	-1%[15.4 µM]	-0.4%	x	-5.2
COc1ccc2c(c1)oc(=O)c1c3ccccc3[nH]c21	-7%	-20%	1.1	4%	-0.8%	-8.4%	1.6
CN(CC(=O)Nc1ccccc1Br)C(=O)c1cccnc1Nc1cccc(C(F)(F)F)c1	16%	-26%	x	-41%[inhibitor]	u	2.7%	-3.1
CCNc1nnc(-c2ccccc2OC)s1	23%	22%	1.4	-9%	-2.5%	u	-4.6
CC(CCc1ccccc1)NC(=O)CN1CCN(c2ccccc2)CC1 (stereo unspecified)	13%	4%	3.5	-12%	-0.4%	-0.6%	0.2
NC(=S)n1[nH]c(-c2ccc([N+](=O)[O-])cc2)c(N=Nc2cccc(Cl)c2)c1=O	-13%	25µM*	-8.4	-10%	13µM*	x	-0.7
O=C(NCc1ccco1)c1ccc(COc2ccccc2Cl)cc1	-11%	-5%[15.4 µM]	u	7%	0.9%	-1.6%	-0.3
Cc1cc(C)cc(OCC(=O)N(Cc2ccc(N(C)C)cc2)C2CCS(=O)(=O)C2)c1 (stereo unspecified)	3%	-18%	8.0	5%[15.4 µM]	2.6%	22µM*	-4.5
Cc1[nH]c2ccc(C(=O)NCCCN3CCCC3)cc2c1C	8%	-7%	0.0	-32%[inhibitor]	0.1%	-4.3%	-0.9
CCN1CCN(C(=O)c2ccccc2NC(=O)c2ccc(Cl)cc2)CC1	14%	8%	x	-1%	0.3%	-1.3%	-3.4
O=C(/C=C/c1cccc(F)c1)NCCCn1ccnc1	-4%	1%	0.8	-3%[15.4 µM]	0.4%	-0.4%	1.9
O=C1NC(c2cccc(Br)c2)=N/C1=C\c1ccco1	u	7%	u	16%	11%	1.3%	-3.7
O=C(CCC(=O)OCc1ccc([N+](=O)[O-])cc1)Nc1ccccc1Cl	15%	9%	-0.3	-7%[15.4 µM]	0.1%	x	1.6
C=CCSc1nc2c(c(=O)[nH]c(=O)n2C)n1C/C=C(/C)Cl	-5%	5%	0.0	12%	-0.6%	0.8%	0.9
O=C1CC(c2ccccc2Oc2cccc(Cl)c2)C(n2cncn2)C(=O)C1C1NCCc2ccccc21 (stereo unspecified)	12%	-1%	1.3	-22%	1.5%	-2.9%	2.0
CCN(CC)C(=O)C12CC3CC(CC(Cl)(C3)C1)C2	14%	8%	0.8	-30%[inhibitor]	0.1%	0.5%	-0.8
CC(C)NC(=O)COc1cccc2ccccc12	18%	-1%	-2.8	3%[15.4 µM]	2.4%	x	-0.6
Cn1c(CCNC(=O)c2cccs2)n[nH]c1=S	-25%	3%	7.8	3%	-0.6%	1.3%	-0.6
N/C(=N\OC(=O)Oc1ccccc1)c1ccc(Br)cc1	21%	-20%	-2.2	u	-1.3%	0.2%	-1.9
O=C1CC2(CCOCC2)Oc2ccc3ccccc3c21	x	-1%	x	22%	-0.1%	-1.0%	-3.1
CCOC(=O)n1c(=O)oc2cc(S(=O)(=O)N3CCOCC3)ccc21	-12%	-4%	1.3	11%	-2.8%[38.3 µM]	-2.6%	-1.8
CCn1c(CNC(=O)C2CCCCC2)cc2ccccc21	-7%	19%	-1.0	-25%	5.8%	x	5.8
CC(CNC(=O)c1cccs1)c1ccc([N+](=O)[O-])cc1 (stereo unspecified)	-12%	-7%	1.4	-112%[inhibitor]	-1.4%	-2.6%	2.5
CCOc1cc(C(=O)Oc2cc(C)[nH]c(=O)c2[N+](=O)[O-])cc(OCC)c1OCC	12%	5%	x	u	0.1%	2.3%	-1.4
COCCNC(=O)c1cc2c(s1)-c1ccc(Cl)cc1SC2	-14%	u	-2.4	-43%[inhibitor][15.4 µM]	8.0%	x	-0.9
Cc1cc(C)nc(N/N=C/c2ccccc2OCC(=O)O)n1	6.3µM*	-2%	-21	-5%	1.1%	x	-3.2
CCOc1ccc(CN(C)Cc2cc(=O)oc3c(C)c(C)ccc23)cc1OC	x	-31%	x	-14%[15.4 µM]	2.9%	x	2.1
Cc1nc(SCC(=O)NC2CCCCC2C)nc(C)c1C (stereo unspecified)	x	5%	x	-7%	5.6%	x	6.5
CCNS(=O)(=O)c1ccc(CCC(=O)Nc2ccccc2)cc1	16%	5%	-1.1	1%	-2.4%	x	-0.5
Cc1cc(C)n2nc(C(=O)N3CCCC(N4CCN(c5ccccc5C)CC4)C3)cc2n1 (stereo unspecified)	-2%	-21%	1.4	-15%	0.8%	28µM*	-1.0
O=C(N/N=C/c1ccc([N+](=O)[O-])cc1)c1c[nH]c2ccccc12	-12%	-36%	0.7	12%	2.0%	0.3%	1.8

Copied from the results shown for reference:
Molecule	Sfp inh	gsp antag	Menin-MLL FL inh	gsp agonist	PINK1 modulator	ClpP mod	D2 ag
CCOc1ccc(CN(C)Cc2cc(=O)oc3c(C)c(C)ccc23)cc1OC	x	-31%	x	-14%[15.4 µM]	2.9%	x	2.1
Cc1nc(SCC(=O)NC2CCCCC2C)nc(C)c1C (stereo unspecified)	x	5%	x	-7%	5.6%	x	6.5
CCNS(=O)(=O)c1ccc(CCC(=O)Nc2ccccc2)cc1	16%	5%	-1.1	1%	-2.4%	x	-0.5

No enrichment for hits (roughly 5.1% active in at least one column).
